Assay outcomes (PubChem BioAssay)
MbtI inh = MbtI salicylate synthase inhibitors, primary screen, biochemical, fluorescence intensity; AID 493033, 2011; 100,000 compounds, 0.89% hits; P9WFX0; purified MbtI enzyme, fluorescence intensity read-out; inhibition, %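 (about 17 µg/mL by stock and volumes)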;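 active means above 50% in both replicates, above 80% if mildly self-fluorescent; inactive means the rest, strongly fluorescent compounds included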;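 further: 0% = mean of negative and 100% = mean of positive controls; one replicate is shown; some compounds called inactive have numbers as strong as hits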
Target sequence (P9WFX0 whole entry, looked up): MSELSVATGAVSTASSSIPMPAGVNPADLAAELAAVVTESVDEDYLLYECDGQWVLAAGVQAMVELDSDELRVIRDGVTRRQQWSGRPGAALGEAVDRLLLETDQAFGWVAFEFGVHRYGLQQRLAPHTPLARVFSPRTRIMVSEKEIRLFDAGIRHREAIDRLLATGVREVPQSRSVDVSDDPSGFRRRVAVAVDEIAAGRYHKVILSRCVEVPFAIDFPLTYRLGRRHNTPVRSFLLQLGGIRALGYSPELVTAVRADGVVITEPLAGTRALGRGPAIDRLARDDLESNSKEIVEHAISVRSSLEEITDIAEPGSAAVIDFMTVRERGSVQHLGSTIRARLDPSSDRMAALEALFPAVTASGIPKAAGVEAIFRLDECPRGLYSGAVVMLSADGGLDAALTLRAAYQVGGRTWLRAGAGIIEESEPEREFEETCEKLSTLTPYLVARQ
Polio RdRp inh = poliovirus RdRp elongation inhibitors, primary screen, biochemical, fluorescence polarization, total intensity. Genome polyprotein (Poliovirus type 1 (strain Mahoney)), P03300. poliovirus polymerase elongation; active compounds read low. % elongation, % (compound at 16.7 µg/mL). 150,000 compounds, 0.66% hits; in the data active means % elongation below about 90%; further: some results filed as inactive read as strong as hits
Target sequence (P03300 1749-2209 limits assumed): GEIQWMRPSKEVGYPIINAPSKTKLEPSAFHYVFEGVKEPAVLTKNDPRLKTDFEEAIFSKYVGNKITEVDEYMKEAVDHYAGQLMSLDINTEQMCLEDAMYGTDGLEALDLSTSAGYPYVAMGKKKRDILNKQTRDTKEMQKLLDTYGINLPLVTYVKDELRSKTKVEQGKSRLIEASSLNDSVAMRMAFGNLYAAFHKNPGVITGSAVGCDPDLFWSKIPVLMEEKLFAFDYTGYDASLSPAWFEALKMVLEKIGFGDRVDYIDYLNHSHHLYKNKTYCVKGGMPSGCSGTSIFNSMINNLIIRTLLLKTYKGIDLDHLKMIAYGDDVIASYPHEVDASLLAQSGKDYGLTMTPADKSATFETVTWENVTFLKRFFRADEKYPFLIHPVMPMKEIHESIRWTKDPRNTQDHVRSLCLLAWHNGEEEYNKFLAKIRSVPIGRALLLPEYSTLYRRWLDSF
MenB inh = M. tuberculosis MenB inhibitors, primary screen, biochemical, absorbance; AID 540299, 2011; 1,4-dihydroxy-2-naphthoyl-CoA synthase (Mycobacterium tuberculosis (strain ATCC 25618 / …; MenB enzyme assay, absorbance read-out; some hits fall short of the stated cut; 100,000 compounds, 0.43% hits; inhibition, %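 (about 12 µg/mL by stock and volumes)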;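 active means mean of two replicates above 30%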;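 further: 0% = no compound and 100% = wells with inactive enzyme; the first replicate is given; strong numbers were not always called active; inactives centre near -10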
Polio RdRp inh intensity = also measured in Polio RdRp inh; calls as there; % elongation; measured here: total intensity read-out; formula for this scale not given here;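 total fluorescence in place of polarization; lower means less elongation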
An asterisk follows results filed as active; i = inactive; x = not tested or not shown; & = joins results of further samples.

(1) Cc1cc(Cl)ccc1OCC(=O)NCC12CC3CC(CC(C3)C1)C2
(2) O=C(Cn1[nH]c(=O)c2ccccc2c1=O)N1CCCCCC1
(3) CCC1(C)NC(=O)N(/N=C/c2c(C)nn(Cc3c(Cl)cccc3Cl)c2SCC(=O)O)C1=O (stereo not given)
(4) COc1ccc(NC(=O)c2cc(=O)c3ccc(C)cc3o2)cc1
(5) O=C(O)CCN1C(=O)SC(CC(=O)Nc2nccs2)C1=O (stereo not given)
(6) CC(=O)N(CC12CC3CC(CC(C3)C1)C2)C1CC(=O)N(c2cccc(Cl)c2)C1=O (stereo not given)

entry no.	1	2	3	4	5	6
MbtI inh	x	13	19	7	-202	x
Polio RdRp inh	108	107	102	101	100	108
Polio RdRp inh intensity	109	101	107	104	101	106
MenB inh	-20	5	-28	-1	3	-8

Looked up by structure from the entries so far:
(4) COc1ccc(NC(=O)c2cc(=O)c3ccc(C)cc3o2)cc1
(1) Cc1cc(Cl)ccc1OCC(=O)NCC12CC3CC(CC(C3)C1)C2
(6) CC(=O)N(CC12CC3CC(CC(C3)C1)C2)C1CC(=O)N(c2cccc(Cl)c2)C1=O (stereo not given)
(5) O=C(O)CCN1C(=O)SC(CC(=O)Nc2nccs2)C1=O (stereo not given)
(2) O=C(Cn1[nH]c(=O)c2ccccc2c1=O)N1CCCCCC1
(3) CCC1(C)NC(=O)N(/N=C/c2c(C)nn(Cc3c(Cl)cccc3Cl)c2SCC(=O)O)C1=O (stereo not given)

entry no.	4	1	6	5	2	3
MbtI inh	7	x	x	-202	13	19
Polio RdRp inh	101	108	108	100	107	102
Polio RdRp inh intensity	104	109	106	101	101	107
MenB inh	-1	-20	-8	3	5	-28

The list continues:
(7) CCN(CC)CCNc1nc2ccc(Cl)cc2[nH]1
(8) CC(=O)Nc1ccccc1C(=O)OCc1nnc(-c2ccccc2)o1
(9) CCCCNC(=O)Cn1c(=O)cc(C)c2c(C)nn(-c3cccc(F)c3)c21
(10) Clc1ccc2nnn(OCCOc3ccc(Br)cc3)c2c1
(11) O=CNc1ncc(-c2nc3ccccc3[nH]2)s1
(12) COc1ccc(NC(=O)C2CCCN(S(=O)(=O)c3ccc(Br)s3)C2)cc1Cl (stereo not given)

entry no.	7	8	9	10	11	12
MbtI inh	-8	i	-4	0	x	-7
Polio RdRp inh	103	101	103	107	104	101
Polio RdRp inh intensity	105	104	103	109	108	102
MenB inh	x	-1	-10	-17	-9	-19

(13) O=C1CCCCC1Sc1nnc(Nc2ccccc2)s1 (stereo not given)
(14) COc1cccc(C(=O)NCCCn2ccnc2)c1
(15) O=C(NC(C(=O)NC1=NCCS1)C12CC3CC(CC(C3)C1)C2)C1CCCCC1 (stereo not given)
(16) Cc1cc(Cl)ccc1OCC(=O)NCCOc1nc(N(C)C)nc(N2CCOCC2)n1
(17) c1nc(N2CCC3(CC2)OCCO3)c2[nH]cnc2n1
(18) Cc1cc(C)n(CC(C)O)c(=O)c1C#N (stereo not given)

entry no.	13	14	15	16	17	18
MbtI inh	-9	-6	-18	3	-6	82
Polio RdRp inh	111	103	99	102	104	102
Polio RdRp inh intensity	112	92	101	103	102	101
MenB inh	-30	-2	-19	19	12	29

(19) Cc1c2c(=O)n(-c3ccccc3)[nH]c2cc(=O)n1CCc1ccccc1
(20) CC1CS(=O)(=O)CCO1 (stereo not given)
(21) CC12CCC(C/C1=N\N=C1/NC(=O)C(CC(=O)NC(N)=O)S1)C2(C)C (stereo not given)
(22) CSc1ccc(S(=O)(=O)N2CCC(C(=O)N(C)C)CC2)cc1
(23) COc1ccc(C2=NOC(C(=O)N(C)c3ccccc3)C2)cc1OC (stereo not given)
(24) CCOc1cccc(CO)c1OCc1ccccc1

entry no.	19	20	21	22	23	24
MbtI inh	1	1	1	-5	9	-10
Polio RdRp inh	106	99	98	108	98	102
Polio RdRp inh intensity	101	101	101	101	101	106
MenB inh	-48	6	5	-48	5	-30

(25) CC1CC1C(=O)OCC(=O)c1ccc(Br)cc1 (stereo not given)
(26) CN1CCN(NC(=O)CN2C(=O)S/C(=C/c3ccc(Cl)cc3)C2=O)CC1
(27) Cc1ccc2nc(NN)nc(-c3ccccc3)c2c1
(28) CC1(C)CC(=O)C2(CNC3=C(C2)C(=O)CC(C)(C)C3)C(=O)C1
(29) N#Cc1cc2c(OCC(O)CN3CCN(C(c4ccccc4)c4ccccc4)CC3)cccc2[nH]1 (stereo not given)
(30) Cc1ccc(O)c(N/C=C2/CCCC2=O)c1

entry no.	25	26	27	28	29	30
MbtI inh	1	-6	1	2	-11	10
Polio RdRp inh	104	103	102	100	102&99	107
Polio RdRp inh intensity	103	105	101	104	103&102	114
MenB inh	x	-10	-36	16	-19	-97

(31) O=c1[nH]c(-c2ccccc2)nnc1/C=C(\O)c1cccs1
(32) CC1CCCC(C)N1C(=O)Cn1cc(/C=C2/C(=O)N(C)c3ccccc32)c2ccccc21 (stereo not given)
(33) COc1ccc(/C=N/c2nnc(SC)s2)c(O)c1
(34) O=C(Nc1cccc(-c2nn3cnnc3s2)c1)c1cccnc1
(35) COC(=O)CNC(=O)c1ccc(COC(C)=O)cc1
(36) N#Cc1ccc(CSc2n[nH]c(=O)n2CCc2ccccc2)cc1

entry no.	31	32	33	34	35	36
MbtI inh	-1	0	15	3	-4	-3
Polio RdRp inh	125	104	101	101	100	103
Polio RdRp inh intensity	134	107	101	104	106	108
MenB inh	-17	-19	-21	11	2	-2

(37) COc1ccc(-c2nn(C)c3sc(C(=O)NCCN4CCN(c5ccccc5F)CC4)cc23)cc1OC
(38) CCOCc1[nH]c(=S)[nH]c(=O)c1Cc1ccc(OCC)cc1
(39) COc1ccc(C(=O)N(CCCCN2C(=O)c3ccccc3C2=O)c2ccc(C)cc2)cc1
(40) N#CCN(CC#N)C(=O)C1c2ccccc2Oc2ccccc21
(41) Cc1cccc(-c2cc(N)n(-c3ccccc3)n2)c1
(42) Cc1nn(-c2ccccc2)c2sc(C(=O)N3CCN(C)CC3)cc12

entry no.	37	38	39	40	41	42
MbtI inh	117	35	-2	-17	-11	21
Polio RdRp inh	101	103	102	103	102	98
Polio RdRp inh intensity	103	103	107	100	100	95
MenB inh	-25	2	-4	-4	6	-32

(43) C=CCN=c1scc(-c2ccco2)n1/N=C/c1cccs1
(44) O=C(CSc1ccccc1)Nc1cccc(O)c1
(45) CN=C1c2c(C)c3cc(OC)ccc3n2CCN1C
(46) S=c1nc(NC2CCCCC2)cn[nH]1
(47) CCN(CC)S(=O)(=O)c1cccc(C2=N/C(=C\c3c(C)nn(-c4ccccc4)c3N3CCCC3)C(=O)O2)c1
(48) COc1ccc(CCn2c(=S)[nH]c3cc(C(=O)N4CCOCC4)ccc3c2=O)cc1OC

entry no.	43	44	45	46	47	48
MbtI inh	9	-5	-75	4	-2	-10
Polio RdRp inh	107	101	104	99	166	99
Polio RdRp inh intensity	109	105	101	106	192	102
MenB inh	-62	-38	8	-3	-10	-2

(49) CCN(c1ncnc2c1cnn2-c1cccc(Cl)c1)C1CCCCC1
(50) CC(C)C1NC(=O)c2c(sc3c2CCCC3)N1 (stereo not given)
(51) Cc1ccc2cc(C(=O)O)c(C)nc2c1
(52) O=C(Cc1ccc(Br)cc1)Nc1nccs1
(53) Cn1nc(SCC(=O)n2c3c(c4ccccc42)CCCC3)sc1=S
(54) O=C(Nc1nn(Cc2c(F)cccc2Cl)cc1Br)C1CCCO1 (stereo not given)

entry no.	49	50	51	52	53	54
MbtI inh	19	-18	6	x	-114	-9
Polio RdRp inh	102&101	99	99	98	100	104
Polio RdRp inh intensity	107&105	108	97	106	104	102
MenB inh	-1	-2	-13	-10	12	-14

(55) N=C1c2ccccc2CN1NC(=O)CSc1nc2ccccc2[nH]1
(56) O=C(CSc1nc2c(c(C(F)(F)F)n1)CCc1ccccc1-2)NCc1ccco1
(57) C#CC(O)(c1ccccc1)c1ccccc1
(58) CCN(Cc1ccccc1)S(=O)(=O)c1ccc2[nH]c(=O)ccc2c1
(59) CCc1ccc(NC(=O)CN2C=NS(=O)(=O)c3ccccc32)cc1
(60) CSc1ccccc1NC(=O)C(C)OC(=O)c1nn(-c2ccccc2)nc1C (stereo not given)

entry no.	55	56	57	58	59	60
MbtI inh	9	2	0	-13	-1	31
Polio RdRp inh	101	103	100	102	102	103
Polio RdRp inh intensity	100	102	103	102	105	105
MenB inh	11	-13	6	-15	-20	-5

(61) CC(C)Oc1ccc(CNC2CCOC(C)(C)C2)cc1 (stereo not given)
(62) Cc1ccc(-c2ccc(CCC(=O)O)n2-c2ccccc2C(F)(F)F)cc1
(63) CC(C)C(C)NC(=O)COc1ccccc1C(N)=O (stereo not given)
(64) CC(C)CCOc1ccc(/C=N/n2cnnc2)cc1
(65) Nc1ncnc2c1ncn2C1CCCO1 (stereo not given)
(66) CC(C)(C)C(=O)C(Cc1ccc(C#N)cc1)C(=O)C(C)(C)C

entry no.	61	62	63	64	65	66
MbtI inh	x	x	-5	16	4	-6
Polio RdRp inh	106	106	101	104	99&99	102
Polio RdRp inh intensity	111	112	103	98	100&98	104
MenB inh	-11	-1	-12	x	-7	5

(67) COc1ccc(CC2CC(=O)N(c3ccc(C)cc3)C2=O)cc1 (stereo not given)
(68) COC(=O)c1[nH]c2ccccc2c1S(=O)c1ccccc1 (stereo not given)
(69) COc1ccc(NC(=O)NC2c3ccccc3Oc3ccccc32)cc1OC
(70) O=C(NCCCN1CCCC1=O)C1CCCN(C(=O)N2CCOc3ccccc32)C1 (stereo not given)
(71) CCCC(=O)N(c1ccc(C)c(Cl)c1)C1C=CS(=O)(=O)C1 (stereo not given)
(72) CC1=C(C)CC(C(=O)Nc2ccc(NC(=O)NC3CCCCC3)cc2)C(C(=O)O)C1 (stereo not given)

entry no.	67	68	69	70	71	72
MbtI inh	-1	16	x	-18	10	-15
Polio RdRp inh	102	102	101	99	101	106
Polio RdRp inh intensity	101	104	102	101	103	101
MenB inh	-20	-18	-50	-6	-1	-40

(73) CC(OC(=O)c1ccccn1)C(=O)Nc1ccc(C(F)(F)F)cc1 (stereo not given)
(74) N#CC1=C(N)Oc2n[nH]c(-c3ccccc3)c2C1C1CC=CCC1 (stereo not given)
(75) CC1CC(C)CN(C(=O)Cn2c(=O)cnc3ccccc32)C1 (stereo not given)
(76) COC(=O)/C=C1\SCC(=O)N1CC(=O)c1ccccc1
(77) c1ccc(Cn2c(C3CCCO3)nc3ccccc32)cc1 (stereo not given)
(78) COC(=O)CN(Cc1ccccc1)S(=O)(=O)c1ccc(C)cc1

entry no.	73	74	75	76	77	78
MbtI inh	9	7	21	12	-6	-7
Polio RdRp inh	102	106	101	44	101	104
Polio RdRp inh intensity	106	125	107	238	102	107
MenB inh	-20	-25	-8	-26	4	-40

(79) CNc1c(NC(=O)C2CC(=O)N(c3ccccc3)C2)c(=O)oc2ccccc12 (stereo not given)
(80) N=C1c2ccccc2CN1CCN1C(=O)S/C(=C\c2ccc(F)cc2)C1=O
(81) O=C1C(O)C(O)C(=O)N1Cc1ccccc1 (stereo not given)
(82) O=C(Nc1ccc2oc(=O)ccc2c1)c1cccc(F)c1
(83) CN(Cc1ccccc1)C(=O)c1cc(S(=O)(=O)N2CCCCC2)c[nH]1
(84) Cc1ccc2occ(CN3CC=C(c4ccc(F)cc4)CC3)c(=O)c2c1

entry no.	79	80	81	82	83	84
MbtI inh	-7	32	-4	-4	-17	-6
Polio RdRp inh	103	98	102	104	101	100
Polio RdRp inh intensity	102	99	102	101	102	103
MenB inh	0	-18	-12	-24	-7	-2

(85) Cc1cc(C)n2cc(CSc3ccccn3)nc2n1
(86) Cc1ccc(C)c(Cn2nc3nc(C)nc(N4CCC(CNC(=O)OC(C)(C)C)CC4)c3n2)c1
(87) CC(C)CCNC(=O)c1cc(-c2ccccc2)n[nH]1
(88) CCOC(=O)c1cc(-c2csc(-c3ccc(C(F)(F)F)cc3)n2)on1
(89) O=C(O)CCn1cnc2ccccc21

entry no.	85	86	87	88	89
MbtI inh	100	-6	14	-27	4
Polio RdRp inh	102	101	103	102	103
Polio RdRp inh intensity	103	102	104	104	101
MenB inh	17	-17	-7	-5	-15
